Marburg entry inh – Marburg virus entry inhibition; Marburg virus pseudotyped entry inhibition, cell reporter; control for the full effect not named in the record; about a third of the inactives were read at about 46 µM; 1.8% of 300,000 active; Potency, µM (series often up to 37.8 µM), inactives show at the highest dose activity change, negative = inhibition, actives largely listed as inhibitors; AID 540276; active = well fitted inhibition curve with a large enough effect; inconclusive = small, poorly fitted or top-dose-only effect, or effect the other way; inactive = flat fitted curve, though single readings scatter; tested in HEK293 cells; about a fifth of its hits are not listed in these tables; also: % is scaled to controls: 0 for no effect and ±100 for the full control effect; luciferase read-out
Cruzain Triton – cruzain (T. cruzi) inhibition with detergent; P25779; purified cruzain, Z-FR-AMC fluorescence, 0.01% Triton; Potency, µM, without a hit: max response, negative = inhibition, most hits filed as inhibitors; 0.43% of 200,000 active; AID 1478; active = well fitted curve in the direction sought with a large enough effect; inconclusive = small, poorly fitted or top-dose-only effect, or another doubt; inactive = no such curve, though single readings can be large; an effect the other way counts as inactive or inconclusive;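 also: plate controls were neutral wells for no effect and buffer without enzyme for full effect; nearly all actives have a fitted effect of over 40% in size; top concentration of the series not given in the record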
Target sequence (P25779 123-467 limits assumed): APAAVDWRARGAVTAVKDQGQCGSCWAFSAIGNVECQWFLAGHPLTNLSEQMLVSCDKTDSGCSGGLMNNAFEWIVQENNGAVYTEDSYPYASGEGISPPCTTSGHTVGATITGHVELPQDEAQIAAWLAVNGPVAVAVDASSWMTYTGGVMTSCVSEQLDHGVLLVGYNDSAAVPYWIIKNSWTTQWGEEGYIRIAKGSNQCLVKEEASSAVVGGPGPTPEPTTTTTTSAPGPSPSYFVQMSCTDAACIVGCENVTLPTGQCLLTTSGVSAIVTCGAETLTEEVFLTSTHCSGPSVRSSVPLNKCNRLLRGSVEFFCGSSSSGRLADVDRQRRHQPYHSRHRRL
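Compounds were screened in titration against cruzain (1.5 nM) with 0.01% Triton X-100 to counter colloidal aggregation. Activity was the AMC fluorescence increase over 60 s after adding 2 uM Z-FR-AMC at pH 5.5.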
LASV entry inh – inhibitors of Lassa virus binding or cell entry; AID 540256; Lassa virus pseudotype entry inhibition, cell reporter; control for the full effect not named in the record; 1.2% of 300,000 active; Potency, µM (titrated, usually from 37.9 µM), for the others: at the highest dose activity change, negative = inhibition, hits mostly inhibitors; active means well fitted inhibition curve with a large enough effect; inconclusive means small, poorly fitted or top-dose-only effect, or effect the other way; inactive means flat fitted curve, though single readings scatter; tested in HEK293 cells; also: % is scaled to controls: 0 for no effect and ±100 for the full control effect; nearly all actives have a fitted effect of over 50% in size; luciferase read-out
NS1 inh – inhibitors of influenza NS1 protein function; S. cerevisiae slowed by influenza A NS1, growth recovery by OD600; Potency, µM (doses to about 46.1 µM), for inactives: top-dose activity, positive = more growth; 0.4% of 270,000 active; AID 2326; also: actives are rising curves; nearly all actives have a fitted effect of over 50% in size
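Recovery from NS1-induced slow growth read by OD600 in budding yeast switched to galactose assay medium (pH 6.0, -URA) at 1:100 dilution. Compound 23 nl per well; the matching strain lacking NS1 serves as control.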
SARS PLP yeast – inhibitors of SARS-CoV papain-like protease in yeast; Potency, µM (doses to about 32.9 µM), for the others: top-dose activity, positive = growth rescue; 0.19% of 330,000 active; S. cerevisiae expressing SARS-CoV PLpro, growth rescue; control for the full effect not named in the record; also: 0% is about no effect; nearly all actives have a fitted effect of over 55% in size; growth read by luminescence after 48 h
RE007 growth inh – less growth of the S. pombe RE007 Vpr strain; S. pombe RE007 Vpr strain, BacTiter-Glo ATP luminescence, 24 h; control for the full effect not named in the record; Potency, µM (doses to about 92.2 µM), inactives show at the highest dose activity change, negative = less growth; 0.21% of 360,000 active; active = well fitted falling curve with a large enough effect; inconclusive = small, poorly fitted or top-dose-only effect; inactive = no such curve, though single readings can be large or run the other way;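 also: % is scaled to controls: 0 for no effect and ±100 for the full control effect; nearly all actives have a fitted effect of over 50% in size; the assay follows cell death caused by Vpr and the record does not say whether a fall means rescue or toxicity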
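Fission yeast strain RE007, carrying one chromosomally integrated HIV-1 vpr copy, was seeded at OD 0.01 in PMG+AL medium with 23 nL pinned compound. After 24 h at 30 °C and 99% humidity, viability was read by BacTiter-Glo luminescence.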
StopGo reporter – lowers the luciferase signal of an FMDV 2A StopGo reporter | human cells with a luciferase reporter of 2A StopGo recoding; control for the full effect not named in the record | Potency, µM (highest dose often 57.9 µM), for the others: top-dose signal change, negative = less light | 1.2% of 410,000 active; active = well fitted falling curve with a large enough effect; inconclusive = small, poorly fitted or top-dose-only effect; inactive = no such curve, though single readings can be large or run the other way; tested in HEK293T cells; also: % is scaled to controls: 0 for no effect and ±100 for the full control effect; nearly all actives have a fitted effect of over 45% in size; luciferase light after 4 h
Cruzain noTriton – inhibitors of Trypanosoma cruzi cruzain without detergent; 2.3% of 200,000 active; purified cruzain, Z-FR-AMC fluorescence, no detergent; AID 1476; Potency, µM, for inactives: max response, negative = inhibition, hits mostly inhibitors; P25779; active = well fitted curve in the direction sought with a large enough effect; inconclusive = small, poorly fitted or top-dose-only effect, or another doubt; inactive = no such curve, though single readings can be large; an effect the other way counts as inactive or inconclusive;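 also: plate controls were enzyme without inhibitor for no effect and buffer without enzyme for full effect; nearly all actives have a fitted effect of over 40% in size; top concentration of the series not given in the record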
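Detergent-free condition (0.00005% Triton X-100) in acetate buffer pH 5.5 with DTT. 1.5 nM enzyme and compound were pre-mixed 15 min, then 2 uM Z-FR-AMC substrate added; reaction progress from fluorescence change between first and third reads (60 s).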
* = called active by the depositor; ? = inconclusive; nt = not tested or not shown; [ ] = remark or other dose. Unless noted, calls follow the shape of the dose curve; as a rule, active means well fitted rising curve with a large enough effect; inconclusive means small, poorly fitted or top-dose-only effect; inactive means no such curve, though single readings can be large or run the other way. Potency is read from the fitted curve at half-maximal effect.

SMILES | Marburg entry inh | Cruzain Triton | LASV entry inh | NS1 inh | SARS PLP yeast | RE007 growth inh | StopGo reporter | Cruzain noTriton
CCCCNC(=O)c1ccc(SCC(=O)N(CC)CC)c([N+](=O)[O-])c1 | 2% | nt | -14% | nt | -2% | 1% | 19% | nt
Cc1cc(C)c2nc(SCC(=O)Nc3ccccc3N3CCOCC3)c(C#N)cc2c1 | -13%[46.1 µM] | nt | -3% | nt | nt | 12% | -9% | nt
Cn1c(=O)c2[nH]c(C(O)c3ccc(Cl)cc3)nc2n(C)c1=O (stereo not given) | -7% | nt | -20% | nt | nt | 2% | ? | nt
CC1CCN(c2nc3c(c(=O)[nH]c(=O)n3C)n2Cc2ccccc2)CC1 | nt | 4.2% | nt | 6% | -3% | -4% | 0% | -11%
O=C(O)c1cc(S(=O)(=O)N2CCOCC2)c(Sc2ccccn2)cc1Sc1ccccn1 | -6% | 2.2% | ? | 1% | -4% | 17% | -9% | -10%
O=C(O)c1cc2ccccc2c(N=Nc2cccnc2)c1O | -1%[46.1 µM] | nt | nt | -2% | -1% | -12% | ? | nt
Cc1cccc(CNC(=O)c2ccc3c(c2)N(C)C(=O)C2CCCCN32)c1 (stereo not given) | nt | -13% | ? | nt | nt | nt | 9% | -4%
CN=C1NN=C(c2cc(C)n(-c3ccc(Cl)cc3)c2C)CS1 | ? | nt | 0%[46.1 µM] | nt | 4% | 13% | -17% | nt
CSc1ccc(/C=C(/NC(=O)c2ccco2)C(=O)N2CCCCCC2)cc1 | -20% | nt | -19% | -11% | 18% | -24% | 33%[activator] | nt
CCOC(=O)C1CCN(S(=O)(=O)c2ccc(-c3ccccn3)s2)CC1 | nt | nt | nt | -5% | 0% | -2% | ? | nt
OC1(c2ccc3c(c2)OCO3)CCN(Cc2ccccn2)CC1 | 3% | 5.4% | 4% | 3% | -1% | -2% | 19% | 1%
CC(C)(O)C#Cc1ccc(C(=O)N2CCN(c3ccc(Cl)cc3)CC2)cc1 | -8%[46.1 µM] | nt | 17% | nt | 3% | 17% | 1% | nt
Cc1cccc(C(=O)Nc2cccc(C(=O)OCc3cc(=O)n4c5c(sc4n3)CCCC5)c2)c1 | nt | -0.8% | ? | nt | nt | nt | 1% | -8%
Cc1ccc(NC(=O)c2c(C)cc(C)nc2SCC(=O)Nc2ccc(Br)cc2)cc1 | ? | -5.1% | -5%[46.1 µM] | nt | nt | nt | -22% | -20%
O=C(CCCCC(=O)OCC1COCO1)OCC1COCO1 (stereo not given) | -2% | nt | -5% | nt | nt | 0% | -6% | nt
CCC(C)NS(=O)(=O)c1ccc(OCC(=O)NCc2cccnc2)cc1 (stereo not given) | ? | 5.6% | 5% | -8% | 13% | 2% | 16% | -2%
Cc1cc2nc(-c3ccc(OCc4ccccc4)cc3)cc(C(F)(F)F)n2n1 | 24%[46.1 µM] | -1.0% | -15%[46.1 µM] | nt | nt | nt | 3% | 9%
CS(=O)(=O)NN1C(=O)c2ccccc2NC1c1ccccc1 (stereo not given) | ? | nt | -1% | nt | 1% | -10% | -11% | nt
Cc1ccc(CCNC(=O)c2ccc3c(=O)n(-c4ccccc4)c(=O)[nH]c3c2)cc1 | 12%[46.1 µM] | 1.0% | 6%[46.1 µM] | nt | nt | nt | -9% | 2%
Cc1ccc(NC(=O)C2CCCN2S(=O)(=O)c2ccc3c(c2)n(C)c(=O)c(=O)n3C)c(C)c1 (stereo not given) | 9%[46.1 µM] | nt | 6% | 1% | 0% | 8% | -7% | nt
Cn1nc(C(F)(F)F)c(-c2cccc(C(F)(F)F)c2)c1NC(=O)c1ccco1 | nt | nt | nt | 3% | -4% | 5% | -22% | nt
CC(=O)c1cc(CC=C(C)C)c(O)c(CC=C(C)C)c1O | -7% | -3.8% | -8% | 2% | -11% | -12% | -7% | -14%
CC(=O)O/N=C(\N)Cc1ccc(-c2csnn2)cc1 | nt | nt | nt | 2% | 0% | -10% | -3% | nt
Cc1nc2ccccc2n1CCC(=O)O | 4% | -0.9% | -12% | 3% | 1% | 1%[3.69 µM] | -8% | 11%
COc1ccc(C2C=C(c3ccccc3)Nc3nc(NC(=O)c4ccc(C)cc4)nn32)cc1 (stereo not given) | ? | -5.1% | 1%[46.1 µM] | nt | nt | nt | 10% | 3%
CCOc1ccc(CNC(=O)c2ccc(CS(=O)Cc3ccc(Cl)cc3)o2)cc1 (stereo not given) | nt | -1.6% | -14%[46.1 µM] | nt | nt | nt | -14% | 2%
Nc1nonc1C(=O)N/N=C/c1cc(Br)ccc1O | ? | nt | ? | 0% | ? | -25% | 44%[activator] | nt
NS(=O)(=O)c1ccc(CCNC(=O)NC2CCCCC2)cc1 | nt | nt | nt | -2% | 0% | -5% | -22% | nt
COc1ccc(Cn2c(=O)c3cccnc3n(Cc3cccc(OC)c3)c2=O)cc1 | -17%[46.1 µM] | -9.4% | nt | nt | nt | nt | -10% | -10%
Cc1cc(OC(C)C(=O)NCCN2CCOCC2)c2c(C)cc(=O)oc2c1 (stereo not given) | nt | nt | nt | 5% | 1% | 15% | -1% | nt

Compound profiles (already shown). Order of values: Marburg entry inh	Cruzain Triton	LASV entry inh	NS1 inh	SARS PLP yeast	RE007 growth inh	StopGo reporter	Cruzain noTriton
Listed for COc1ccc(C2C=C(c3ccccc3)Nc3nc(NC(=O)c4ccc(C)cc4)nn32)cc1 (stereo not given) = ?	-5.1%	1%[46.1 µM]	nt	nt	nt	10%	3%
Listed for CSc1ccc(/C=C(/NC(=O)c2ccco2)C(=O)N2CCCCCC2)cc1 = -20%	nt	-19%	-11%	18%	-24%	33%[activator]	nt
Listed for CCCCNC(=O)c1ccc(SCC(=O)N(CC)CC)c([N+](=O)[O-])c1 = 2%	nt	-14%	nt	-2%	1%	19%	nt
Listed for OC1(c2ccc3c(c2)OCO3)CCN(Cc2ccccn2)CC1 = 3%	5.4%	4%	3%	-1%	-2%	19%	1%

Continuation.
SMILES | Marburg entry inh | Cruzain Triton | LASV entry inh | NS1 inh | SARS PLP yeast | RE007 growth inh | StopGo reporter | Cruzain noTriton
COc1cccc(CN2C(=O)CN(C3CCCCC3)C(=O)C2c2ccc(F)cc2)c1 (stereo not given) | 11% | 1.7% | ? | -46% | -7% | -7% | -25% | 2%
Cc1ccc(C(=O)Nc2ccccc2NC(=O)c2ccc(C)o2)o1 | -18% | 1.9% | -4% | 1% | -2% | 9% | 2% | -10%
Cc1cnc(CN(C)C(=O)c2cc(COc3c(F)cccc3F)on2)[nH]1 | 15%[46.1 µM] | nt | -8% | 2% | 0% | -10% | -9% | nt
CC(C)c1ccccc1NC(=O)CSc1nnc(COc2ccccc2Cl)o1 | 14%[46.1 µM] | 3.3% | 3%[46.1 µM] | nt | nt | nt | -7% | -14%
COc1ccc(-n2nc(C(=O)NCC(=O)NCc3ccccc3OC)c3ccccc3c2=O)cc1 | 2%[46.1 µM] | nt | -2%[46.1 µM] | 2% | 10% | 0% | -18% | nt
CCOC(=O)CSc1nc2c([nH]c3ccccc32)c(=O)n1C | 1% | 1.5% | ? | 1% | 26% | 0% | 0% | ?
COc1ccc(N2C(=O)C3C4C=CC(c5ccccc5)(C3C2=O)C2C(=O)N(c3ccc(OC)cc3)C(=O)C42)cc1 (stereo not given) | ? | nt | 4% | -3% | -1% | 0% | -14% | nt
N#Cc1ccccc1NC1=CC(=O)CCC1 | 12% | 3.4% | 2% | -18% | ? | -8% | 3% | -11%
Nc1ccnc(Oc2ccc(F)cc2)c1 | -15% | -3.3% | ? | 15% | 19% | -16% | 38%[activator] | 2%
COc1ccc(CN(C)C(=O)c2ccccc2Sc2ccccc2C#N)c(OC)c1 | ? | nt | -25%[46.1 µM] | 11% | -6% | -1% | 11% | nt
COc1ccc(-c2[nH]c3ccccc3c2SCCNC(=O)c2cc(OC)c(OC)c(OC)c2)cc1 | ? | -4.4% | ? | nt | nt | nt | 0% | ?
Cn1c(Sc2ccc(C(F)(F)F)cc2[N+](=O)[O-])nnc1-c1ccccc1 | ? | 2.1% | 3% | 2% | -2% | 5% | ? | 0%
O=C1NN(c2ccccc2)C(=O)/C1=C/c1ccc(-c2ccc(C(=O)O)cc2)o1 | nt | nt | nt | 15% | -4% | 1% | 3% | nt
CC(C)C(=O)Nc1cccc(C(=O)Nc2nnc(C(F)(F)F)s2)c1 | ? | -4.9% | -2%[46.1 µM] | nt | nt | nt | 44%[activator] | -3%
CCC(=O)Nc1nc2ccc(S(C)(=O)=O)cc2s1 | -40%[46.1 µM] | -0.5% | 6% | 2% | 6% | 8% | 28% | 10%
Cc1cc(=O)[nH]c2nnc(SCC(=O)NC(C)(C)C)n12 | nt | 0.4% | 4%[46.1 µM] | nt | nt | nt | 6% | 19%
COc1ccc(C(=O)c2ccc(OC)cc2O)c(O)c1 | -1%[46.1 µM] | -1.5% | 27% | -48% | 6% | -3% | 33%[activator] | -5%
O=C(Nc1ccc(Nc2ccccc2)cc1)C(Cl)Cl | ? | -6.3% | ? | -37% | -45% | -2% | 13% | -10%
c1ccc2c(c1)CCCN2Cc1nnc2n1CCCCC2 | 2% | 1.8% | -27% | 4% | -3% | 2% | 2% | 3%
c1ccc(NCn2cncn2)nc1 | 4% | 6.1% | 1% | 4% | -1% | 4% | 5% | ?
COc1ccc(Cn2ccc3nc(C)c(C(=O)N4CCN(c5cc(C)ccc5C)CC4)cc3c2=O)cc1 | nt | -8.1% | -20%[46.1 µM] | nt | nt | nt | ? | ?
O=c1c2c(n3cnnc3n1-c1ccccc1)-c1ccccc1CC21CCCC1 | 9% | -5.1% | 4% | 7% | 13% | 1% | ? | -14%
CN(C)c1ccc(C2C3C(=O)N(c4ccc(C(=O)O)cc4)C(=O)C3ON2c2ccccc2)cc1 (stereo not given) | -1%[46.1 µM] | 1.2% | 21% | 15% | -5% | -1% | -12% | ?
Fc1ccc(N2CCN(Cc3nnc(-c4ccccc4Cl)o3)CC2)cc1 | 10%[46.1 µM] | -6.3% | 1%[46.1 µM] | nt | nt | nt | -6% | 10%
CCOc1ccc2nc(SCC(=O)NC3CCS(=O)(=O)C3)[nH]c2c1 (stereo not given) | 14% | 4.3% | 4% | -1% | 0% | 30% | 6% | -4%

Screening data (PubChem)
